TRPML1 blocker – qHTS for Inhibitors of the Human Mucolipin Transient Receptor Potential 1 (TRPML1). Mucolipin-1 (Homo sapiens), Q9GZU1. TRPML1-inducible cells, Ca2+ dye fluorescence, FDSS; active compounds read low; inhibition of EC80 agonist-evoked calcium signal. activity change, negative = inhibition, % (test concentration not listed). 0.02% of 390,000 active. AID 624415, 2012; in the data active means activity change below about -50%; inconclusive means about -30% to -50%; inactive means above about -30%;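 note: stimulus is agonist 54-4 at its EC80 concentration; % is set by controls: 0 for no effect and ±100 for the full control effect; compound concentration not given in the record; the text of the record puts the active cut at -80%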
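TRPML1-DL cells, Tet-induced overnight (~16 h, 37 °C) at 1,500 cells/well, were loaded with Ca8 no-wash dye plus quencher for 45-90 min at room temperature. Compounds were pinned during FDSS kinetic reading; agonist 54-4 at EC80 (4 uM final) then added.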
CtBP-E1A blk – qHTS Assay for Inhibitors of the CtBP/E1A Interaction | CtBP / adenovirus E1A interaction (AlphaScreen) | AID 651724, 2012 | activity change, % (test concentration not listed) | AlphaScreen GST-E1A/His-CtBP binding, 1536-well; active compounds read low; control for the full effect not named in the record | 0.49% of 340,000 active; in the data active means activity change below about -65%; inconclusive means about -30% to -65%; inactive means above about -30%; note: % is set by controls: 0 for no effect and ±100 for the full control effect
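In 5 uL wells, 23 nL compound meets equimolar GST-E1A and His-CtBP (5X stock 125 nM each) for 2 h, 37 °C. Beads (5X, 50 ug/mL) then 1 h, 37 °C, dark.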
Six1-Eya2 blk – qHTS Assay for Inhibitors of the Six1/Eya2 Interaction; Homeobox protein SIX1 (Homo sapiens) + Protein phosphatase EYA2 (Homo sapiens), …; AlphaScreen GST-Six1/His-Eya2 binding, biochemical; active compounds read low; control for the full effect not named in the record; activity change, % (concentration not given with the values); 0.56% of 360,000 active; AID 651725, 2012; in the data active = activity change below about -65%; inconclusive = about -30% to -65%; inactive = above about -30%; note: % is set by controls: 0 for no effect and ±100 for the full control effect
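GST-Six1 + His-Eya2 (5X stock: 250/500 nM); Tris pH 8.0, 300 mM NaCl, 0.05% BSA, 0.02% Tween 20; GSH donor/Ni acceptor beads; 1 h 37 °C dark; AlphaScreen readout.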
TRPML1 agonist – qHTS for Agonists of the Human Mucolipin Transient Receptor Potential 1 (TRPML1); TRPML1-expressing cells, Ca2+ dye fluorescence, FDSS; host cell line not named in the record; reference of the full effect not given here; AID 624414, 2012; activation, % (concentration not given with the values); 0.12% of 410,000 active; Mucolipin-1 (Homo sapiens), Q9GZU1; in the data active = activation above about 50%; inconclusive = about 30% to 50%; inactive = below about 30%; note: 0% is about no effect; the text of the record puts the active cut at 80%
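In this qHTS format, compounds were pin-transferred onto Ca8-dye-loaded TRPML1-DL cells induced with Tet overnight, and intracellular Ca2+ fluorescence was recorded kinetically for 110 s after a 10 s baseline. A subsequent 4uM final 54-4 (EC80) addition followed by a second 110 s read served as the antagonist phase.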
TRPV1 PAM – HTS Assay for Compounds that Act as Potentiators of the Vanilloid Receptor 1; 0.02% of 320,000 active; TRPV1-expressing cells, Fluo-8 calcium influx, capsaicin EC20 potentiation; host cell line not named in the record; control for the full effect not named in the record; Transient receptor potential cation channel subfamily V member 1 (Homo sapiens), Q8NER1; AID 540277, 2011; potentiation, % at 8.33 µM; active means potentiation above 80%; inconclusive means 30% to 80%; inactive means below 30%; note: 0% is about no effect
Target sequence (Q8NER1 whole entry, looked up): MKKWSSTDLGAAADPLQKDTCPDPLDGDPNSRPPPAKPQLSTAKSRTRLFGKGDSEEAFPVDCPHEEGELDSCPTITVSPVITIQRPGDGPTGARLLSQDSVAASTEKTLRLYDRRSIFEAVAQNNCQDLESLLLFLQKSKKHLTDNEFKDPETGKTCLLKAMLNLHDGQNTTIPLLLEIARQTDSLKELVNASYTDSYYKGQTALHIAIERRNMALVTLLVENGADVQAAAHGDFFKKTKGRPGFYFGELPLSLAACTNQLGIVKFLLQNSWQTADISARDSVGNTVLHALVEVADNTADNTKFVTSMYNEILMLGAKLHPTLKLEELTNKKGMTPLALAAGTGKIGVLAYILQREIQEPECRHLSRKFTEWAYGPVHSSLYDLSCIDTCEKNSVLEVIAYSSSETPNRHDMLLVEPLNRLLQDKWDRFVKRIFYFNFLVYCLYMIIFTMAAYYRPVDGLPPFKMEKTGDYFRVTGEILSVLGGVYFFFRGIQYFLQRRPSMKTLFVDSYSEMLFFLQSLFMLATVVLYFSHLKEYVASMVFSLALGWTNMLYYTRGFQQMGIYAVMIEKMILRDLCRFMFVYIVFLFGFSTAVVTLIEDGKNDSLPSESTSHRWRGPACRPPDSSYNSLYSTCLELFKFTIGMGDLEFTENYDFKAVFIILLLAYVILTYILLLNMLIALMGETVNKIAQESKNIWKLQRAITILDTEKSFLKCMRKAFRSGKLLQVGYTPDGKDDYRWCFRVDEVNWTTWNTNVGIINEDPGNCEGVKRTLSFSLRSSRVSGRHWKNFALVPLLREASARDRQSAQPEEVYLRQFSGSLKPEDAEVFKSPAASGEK
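Fluo-8 calcium influx in TRPV1-expressing cells, kinetic read (ex 480/em 520 nm). Compound added and read 3 min for agonist activity, followed by capsaicin at EC20 final and 2 min further read for enhancement.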
D2 potentiator – Beta-Arrestin HTS for Positive Allosteric Modulators of the Human D2 Dopamine Receptor: Potentiators; DiscoveRx D2 beta-arrestin cells, luminescence, 90 min; 100% = 57 uM dopamine signal; 0.23% of 360,000 active; potentiation, % (test concentration not listed); D(2) dopamine receptor (Homo sapiens), P14416; active = potentiation of 50% or more; inconclusive = 30% to 50%; inactive = 30% or less;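 note: compound concentration not given in the record; tested on top of an EC20 dose of dopamine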
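D2 cells co-treated with compound plus 50 nM dopamine (EC20) for 90 min at 37 deg C to detect potentiation. Beta-arrestin recruitment was read as enzyme-fragment luminescence after 1 h at ambient temperature. Full response was set by 57 uM dopamine.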
The depositor's hits bear a star; ? = inconclusive; · = not tested or not shown; & = joins results of further samples.

SMILES | TRPML1 blocker | CtBP-E1A blk | Six1-Eya2 blk | TRPML1 agonist | TRPV1 PAM | D2 potentiator
CC1(C(=O)N2CCC(CO)(Cc3cccc(C(F)(F)F)c3)CC2)CC1 | -8 | 12 | -3 | 0.4 | -14 | 1
CCn1cc([N+](=O)[O-])c(C(=O)N2CCCCCC2)n1 | -6 | 0 | 2 | 0.1 | -6 | -8
O=C(CSc1nc2ccccc2c(=O)[nH]1)NCc1ccc(Cl)cc1 | 29 | 9 | -16 | -0.2 | ? | -27
CCC(=O)Nc1cc(C(=O)OCC(=O)c2ccccc2)ccc1C | 4 | -3 | 6 | 0.5 | 10 | -10
COC(=O)/C=C/c1ccc(OC(=O)c2ccncc2)cc1 | 19 | 1 | -2 | 0.6 | 10 | 6
COc1ccc2cc3[n+](cc2c1OC)CCc1cc2c(cc1-3)OCO2 | 12&-23 | ? | -3&-15 | -0.2&0.5 | 5&-4 | -9&-13
COc1ccc(CC(=O)Nc2sc(Cc3ccccc3)c(C)c2C(N)=O)cc1 | -3 | 38 | 22 | 0.1 | -3 | 9
O=C(Nn1c(=S)[nH]c2ccccc2c1=O)c1ccncc1 | 3 | 1 | 11 | 1.0 | 0 | -5
Cc1cc(NC(=O)c2ccc(F)c(S(=O)(=O)N3CCCCC3)c2)no1 | 8 | -3 | 4 | -0.5 | -3 | -14
COc1ccc(CNC(=S)Nc2cccc(C)c2C)cc1 | -13 | 6 | -6 | 1.4 | 4 | 0

Arranged by number of heavy atoms (rising): part of the list above
SMILES | TRPML1 blocker | CtBP-E1A blk | Six1-Eya2 blk | TRPML1 agonist | TRPV1 PAM | D2 potentiator
CCn1cc([N+](=O)[O-])c(C(=O)N2CCCCCC2)n1 | -6 | 0 | 2 | 0.1 | -6 | -8
COc1ccc(CNC(=S)Nc2cccc(C)c2C)cc1 | -13 | 6 | -6 | 1.4 | 4 | 0
CCC(=O)Nc1cc(C(=O)OCC(=O)c2ccccc2)ccc1C | 4 | -3 | 6 | 0.5 | 10 | -10
Cc1cc(NC(=O)c2ccc(F)c(S(=O)(=O)N3CCCCC3)c2)no1 | 8 | -3 | 4 | -0.5 | -3 | -14
COc1ccc(CC(=O)Nc2sc(Cc3ccccc3)c(C)c2C(N)=O)cc1 | -3 | 38 | 22 | 0.1 | -3 | 9

Next section
SMILES | TRPML1 blocker | CtBP-E1A blk | Six1-Eya2 blk | TRPML1 agonist | TRPV1 PAM | D2 potentiator
Cc1nnsc1C(=O)N1CCCC1(C)C(=O)O (stereo unspecified) | · | -7 | 6 | -0.3 | · | -5
Cn1c(=O)c2c(nc(N3CCCCCC3)n2CCSc2nc3ccccc3o2)n(C)c1=O | 32 | 2 | 5 | 0.4 | -3 | -3
COc1cc(NC(=O)c2ccco2)c(OC)cc1NC(=O)CCC(=O)Nc1cc(C)cc(C)c1 | -13 | ? | ? | 1.6 | 5 | -6
Cc1cc2n(n1)SC(Nc1cccc3ccccc13)N2 (stereo unspecified) | 7 | -5 | -5 | 0.0 | ? | 11
CCS(=O)(=O)N1CCN(c2cccc(C)c2C)CC1 | 21 | 4 | 6 | -1.0 | -27 | 12
CC1CCN(S(=O)(=O)c2ccc(S(=O)(=O)NCc3ccco3)cc2)CC1 | -2 | 8 | 5 | 0.5 | -4 | -4
CCOC(=O)c1c(NC(C)=O)sc2c1CCN(Cc1ccccc1)C2 | 1 | -19 | -9 | 0.8 | 7 | -8
COC(=O)c1c(NC(C)=O)csc1C | -10 | 6 | 8 | -0.4 | 8 | 0
CC1CN(CCS(=O)(=O)c2cc(Cl)ccc2Cl)CC(C)O1 (stereo unspecified) | -15 | 5 | -5 | 4.9 | -3 | -1
COc1ccccc1NC(=O)COC(=O)c1ccccc1OCC(=O)Nc1ccc(SC(F)F)cc1 | 0 | 14 | 9 | -1.3 | 15 | 10
CN(C)S(=O)(=O)N1CCN(CC(=O)Nc2cc(Cl)ccc2Cl)CC1 | -12 | 0 | 2 | 2.3 | -4 | -2
COc1cccc(C2C(C(=O)c3cc4ccccc4o3)=C(O)C(=O)N2c2cc(C)on2)c1 (stereo unspecified) | -4 | · | -6 | 2.1 | 14 | -9
Cc1ccc(C(=O)Nc2ccc3ncccc3c2)cc1 | -5 | 8 | 26 | -0.6 | -4 | -14
COc1ccc(S(=O)(=O)N(C)[C@H]2C[C@H]3c4cc(-c5ccccc5)ccc4CCN3C(=O)[C@H]2[C@H](C)O)cc1 | 6 | -8 | -13 | 0.0 | · | 0
CC1=NN(c2nc(-c3ccc(F)cc3)cs2)C(=O)C1 | 1 | -2 | -12 | -0.3 | -1 | -22
O=S(=O)(NC12CC3CC(CC(C3)C1)C2)c1ccc(F)cc1 | 14 | 8 | -1 | 0.4 | -3 | -10
Cc1ccc(Nc2c(O)nc[nH]c2=O)cc1 | 11 | 5 | 4 | -0.6 | · | -1
O=C(Nc1cccc(Cl)c1Cl)c1ccco1 | -2 | 5 | 3 | -0.9 | · | -1
O=C(CCCCCn1c(=S)[nH]c2ccc(N3CCOCC3)cc2c1=O)NCCc1ccccc1 | 2 | 0 | 4 | -0.5 | 4 | 2
CC1CCCCN1C(=O)CSc1nnc(-c2ccco2)n1CC1CCCO1 (stereo unspecified) | -2 | 6 | 2 | 1.1 | -7 | -8
CCCOc1ccc(CCc2n[nH]c(=S)n2-c2ccccc2)cc1 | -9 | -1 | -23 | 1.1 | 13 | -16
COCCn1c(N)c(N(Cc2ccccc2)C(=O)C2CCCCC2)c(=O)[nH]c1=O | -1 | 0 | 15 | -0.6 | ? | 1
Cc1ccnc(NS(=O)(=O)c2ccc(NC(=O)c3ccc(S(=O)(=O)N4CC(C)OC(C)C4)cc3)cc2)n1 (stereo unspecified) | 15 | -11 | 6 | 0.0 | 3 | -15
CCCCN(C)C(=O)c1sc(=O)n(Cc2ccc(Cl)c(Cl)c2)c1C | · | -2 | -6 | -1.0 | · | 2
Cc1ccc(CSc2nnc([C@@H]3CCCN3)o2)cc1 | 6 | 6 | 1 | 0.0 | -10 | 1
Clc1ccc(CSc2ncn(-c3ccccc3)n2)cc1 | -3 | 17 | 17 | -0.4 | -3 | -13
CCOC(=O)C1CCCN(C(=O)c2cc(S(=O)(=O)N3CCCCC3)c[nH]2)C1 (stereo unspecified) | 0 | 8 | 2 | -0.7 | -21 | -1
N#CC1=C(SCC(=O)Nc2nccs2)NC(=O)CC1c1ccccc1 (stereo unspecified) | 5 | 4 | 1 | 0.2 | 3 | -16
COc1ccc(/C=N/NC(=O)CCc2c(C)n[nH]c2C)cc1O | -3 | -1 | 6 | 0.3 | -9 | -6
c1ccc(CSc2nnc([C@@H]3CCCN3)o2)cc1 | 19 | 4 | -2 | 0.3 | 8 | -25
CCN(CC)c1ccc2c(cc1=O)[C@@H](NC)CCc1cc(OC)c(OC)c(OC)c1-2 | 23 | -3 | -14 | 0.1 | -14 | -3
Cn1c2ccccc2c(=O)c2c(=O)n(C3CCCCC3)c(-c3cccs3)nc21 | 17 | -1 | -3 | ? | -22 | -13
CC(C)(C)c1cccc(OCCCSc2ncccn2)c1 | 11 | 43 | 41 | 1.0 | -28 | -18
C[C@H](NC(=O)c1nc[nH]c1C(=O)N[C@@H](Cc1ccccc1)C(=O)OCc1ccccc1)C(=O)OCc1ccccc1 | 24 | -7 | -10 | 0.9 | -8 | -8
Cc1ccn2c(=O)nc(SCC(=O)Nc3cc(C)on3)nc2c1 | -1 | -2 | -8 | 0.0 | 25 | 1
CCOC(=O)C1=C(C)NC(C)=C(C(=O)OC)C1c1cccc([N+](=O)[O-])c1 (stereo unspecified) | 12 | -6 | -15 | 2.6 | 7&1 | -4
COc1nc(C)cc(C)c1S(=O)(=O)c1ccccc1C | -13 | 9 | 9 | 2.3 | -7 | 13
COc1cccc(/C=N/NC(=O)C(=O)NCc2cccnc2)c1 | 6 | 10 | 3 | -0.2 | 18 | 4
Cc1cc(C)cc(C(=O)OCC(=O)NC(=O)NC2CCCC2)c1 | 12 | 0 | -4 | 3.6 | -3 | -19
CC(C)c1ccc(C2NC(=O)CCC2[N+](=O)[O-])cc1 (stereo unspecified) | -17 | · | 0 | 0.4 | 6 | -4
O=C(Cn1cnc2c(NCc3ccccc3)ncnc21)NCc1ccccc1 | 7 | 4 | 1 | -0.8 | · | -6
CCOC(=O)CSc1nc2c(c(=O)[nH]c(=O)n2C)n1CCc1ccccc1 | -6 | 10 | 0 | -0.3 | 2 | 1
Cc1ccc(NC(=O)c2cc(S(=O)(=O)N3CCOCC3)c(Br)s2)cc1 | 9 | 6 | 10 | 0.1 | 15 | -9
CSc1ccc(CN2C(=O)NC3(CCCCC3)C2=O)cc1 | -12 | 9 | 6 | 0.6 | -8 | -5
COC(=O)[C@@]1(Cc2ccc(F)cc2)[C@H]2c3cc(C(=O)N4CCCC4)n(CCc4ccccn4)c3C[C@H]2CN1C(=O)c1ccccc1 | 9 | 1 | -4 | 5.6 | -11 | -2
O=C(CCc1ccccc1)Nc1ccc(Cl)cn1 | 13 | 6 | 6 | 2.6 | 1 | -23
N=c1c(C(=O)NCC2CCCO2)cc2c(=O)n3ccccc3nc2n1Cc1cccnc1 (stereo unspecified) | 32 | -3 | -1 | 3.4 | -10 | -14
CC(=O)Nc1cc(NC(C)=O)cc(C(=O)N2CCCC3CCCCC32)c1 (stereo unspecified) | 39 | -13 | -27 | 0.8 | 1 | 4
COc1cccc(C2c3[nH]c4ccccc4c3C[C@H]3C(=O)N(CCCOC(C)C)CC(=O)N23)c1 (stereo partly specified) | 17 | 8 | 4 | 3.0 | 6 | -3
O=C(NC1CCCCC1)C(c1cccs1)N(C(=O)C(F)(F)F)c1ccccc1 (stereo unspecified) | -10 | 12 | -2 | 0.8 | · | 1

Additional results:
SMILES | TRPML1 blocker | CtBP-E1A blk | Six1-Eya2 blk | TRPML1 agonist | TRPV1 PAM | D2 potentiator
CC(C)[C@H]1COCCS(=O)(=O)N1Cc1ccccc1-c1cccc(Cl)c1 | 10 | -9 | -1 | 0.1 | · | -6
O=C(O)CC/C(=N\NC(=O)CNC(=O)/C=C/c1ccccc1)c1ccccc1 | 23 | 3 | -2 | -0.4 | 17 | -7
O=C1c2ccccc2S(=O)(=O)c2cc(C(=O)N3CCCC3)ccc21 | -1 | 0 | -4 | 0.1 | · | 18
O=C(O)/C=C/c1ccc2noc(-c3ccccc3)c2c1 | -2 | -1 | 2 | -0.6 | 12 | 3
CCCc1cc(=O)[nH]c(SCC(=O)N2C(C)CCCC2C)n1 (stereo unspecified) | -5 | 0 | 4 | 1.1 | -13 | 0
CN(CC(=O)O)S(=O)(=O)c1ccc2[nH]c(=O)c(=O)[nH]c2c1 | · | -2 | 3 | · | 22 | -5
C=CCn1c2c(c(=O)[nH]c1=S)CN(C(C)c1ccccc1)CN2 (stereo unspecified) | 6 | · | 7 | 3.5 | -1 | -9

Source: PubChem (National Center for Advancing Translational Sciences (NCATS))
